From PubChem BioAssay
Six1-Eya2 blk – blocks human Six1 binding to Eya2; Q15475+O00167; AlphaScreen GST-Six1/His-Eya2 binding, biochemical; stronger effect = lower value; control for the full effect not named in the record; hit rate 0.56% among 360,000; activity change, % (test concentration not listed); in the data active = activity change below about -65%; inconclusive = about -30% to -65%; inactive = above about -30%; also: % is scaled to controls: 0 for no effect and ±100 for the full control effect; compound concentration not given in the record
Target sequence (O00167 whole entry, looked up): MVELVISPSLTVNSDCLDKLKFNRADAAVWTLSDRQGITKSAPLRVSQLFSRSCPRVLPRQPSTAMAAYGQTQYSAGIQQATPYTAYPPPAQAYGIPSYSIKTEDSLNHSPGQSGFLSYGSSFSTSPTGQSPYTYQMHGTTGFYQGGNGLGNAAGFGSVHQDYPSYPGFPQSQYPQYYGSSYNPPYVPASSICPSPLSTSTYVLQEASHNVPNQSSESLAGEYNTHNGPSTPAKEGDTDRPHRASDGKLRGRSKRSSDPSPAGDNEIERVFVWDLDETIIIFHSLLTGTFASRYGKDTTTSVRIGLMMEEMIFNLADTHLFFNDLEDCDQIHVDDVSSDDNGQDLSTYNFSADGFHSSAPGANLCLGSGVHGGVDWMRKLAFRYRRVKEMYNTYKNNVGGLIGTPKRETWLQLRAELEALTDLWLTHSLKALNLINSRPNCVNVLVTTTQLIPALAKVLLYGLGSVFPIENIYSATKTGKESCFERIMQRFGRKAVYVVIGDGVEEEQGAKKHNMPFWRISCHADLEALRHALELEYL
Target sequence (Q15475 whole entry, looked up): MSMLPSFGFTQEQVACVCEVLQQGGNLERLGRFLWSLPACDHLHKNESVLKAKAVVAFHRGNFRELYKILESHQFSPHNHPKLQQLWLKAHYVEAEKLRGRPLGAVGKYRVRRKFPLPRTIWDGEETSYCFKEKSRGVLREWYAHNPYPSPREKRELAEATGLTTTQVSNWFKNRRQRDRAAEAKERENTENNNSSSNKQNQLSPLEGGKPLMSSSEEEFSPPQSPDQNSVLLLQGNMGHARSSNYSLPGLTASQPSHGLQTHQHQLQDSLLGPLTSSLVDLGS
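AlphaScreen with GST-Six1 and His-Eya2 (5X mix: 250 nM and 500 nM), glutathione donor and nickel acceptor beads; buffer 50 mM Tris pH 8.0, 300 mM NaCl, 1 mM TCEP; 1 h at 37 C in the dark.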
Sfp inh – inhibitors of Bacillus subtilis Sfp phosphopantetheinyl transferase | Biochemical Sfp PPTase activity, qHTS | Potency, µM, inactives show max response, negative = inhibition, hits mostly inhibitors | hit rate 3.5% among 310,000 | Q9F4F7; active = well fitted inhibition curve with a large enough effect; inconclusive = small, poorly fitted or top-dose-only effect, or another doubt; inactive = no such curve, though single readings can be large or run the other way;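 also: the enzyme is Sfp with the accession as filed and its product quenches rhodamine fluorescence; potency is read from the fitted curve at half-maximal effect; 0% = enzyme reaction without inhibitor and -100% = no enzyme wells; top concentration of the series not given in the record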
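With Hepes-Na pH 7.6 buffer containing 10 mM MgCl2, Sfp (15 nM) modified BHQ-2-YbbR (12.5 uM) using rhodamine-CoA (5 uM). Two reads 30 minutes apart at 525/598 nm yielded each well's rate.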
CtBP-E1A inh – inhibitors of CtBP/E1A interaction; AlphaScreen GST-E1A/His-CtBP binding, 1536-well; stronger effect = lower value; control for the full effect not named in the record; activity change, % (test concentration not listed); hit rate 0.49% among 340,000; AID 651724; in the data active means activity change below about -65%; inconclusive means about -30% to -65%; inactive means above about -30%; also: % is scaled to controls: 0 for no effect and ±100 for the full control effect; compound concentration not given in the record
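Protein mix (5X: 125 nM each GST-E1A, His-CtBP) was incubated with pinned compound 2 h at 37 deg C in dark, in 50 mM Tris pH 8.0 buffer with 300 mM NaCl. Glutathione donor and nickel acceptor beads followed; AlphaScreen signal read after 1 h.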
TRPV1 PAM – human TRPV1 potentiation | TRPV1-expressing cells, Fluo-8 calcium influx, capsaicin EC20 potentiation; host cell line not named in the record; control for the full effect not named in the record | hit rate 0.02% among 320,000 | Q8NER1 | potentiation, % at 8.33 µM; active means potentiation above 80%; inconclusive means 30% to 80%; inactive means below 30%; also: 0% is about no effect
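Cells expressing TRPV1 were dye-loaded with Fluo-8 and read kinetically: 10 s baseline, 3 min after compound (agonist portion), then 2 min after EC20 capsaicin (allosteric enhancer portion). Calcium-bound dye fluorescence at 480/520 nm.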
D2 PAM – potentiates the human D2 dopamine receptor allosterically | P14416 | DiscoveRx D2 beta-arrestin cells, luminescence, 90 min; 100% = 57 uM dopamine signal | potentiation, % (concentration not given with the values) | hit rate 0.23% among 360,000 | AID 624464; active = potentiation of 50% or more; inconclusive = 30% to 50%; inactive = 30% or less;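 also: compound concentration not given in the record; tested on top of an EC20 dose of dopamine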
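D2 cells co-treated with compound plus 50 nM dopamine (EC20) for 90 min at 37 deg C to detect potentiation. Beta-arrestin recruitment was read as enzyme-fragment luminescence after 1 h at ambient temperature. Full response was set by 57 uM dopamine.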
PINK1 expr mod – changes PINK1 expression; PINK1 immunofluorescence, high-content cytometry, 24 h; Potency, µM (titrated, usually from 76.6 µM), without a hit: at the top dose activation (PINK1 increase), most hits filed as activators; hit rate 0.2% among 410,000; AID 624263; active = well fitted activation curve with a large enough effect; inconclusive = small, poorly fitted or top-dose-only effect; inactive = flat fitted curve, though single readings scatter; cell line not stated here;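 also: potency is read from the fitted curve at half-maximal effect; % of control where 0% means no effect; nearly all actives have a fitted effect of over 65% in size; a mitochondrial uncoupler was the plate control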
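Stable cell line treated 24 h with compounds at 5 concentrations (CCCP controls), then fixed and immunostained for PINK1 plus nuclear and cell stains; PINK1 immunofluorescence quantified by laser-scanning microplate cytometry.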
D2 ag – agonists of human D2 dopamine receptor (beta-arrestin); P14416; DiscoveRx PathHunter D2 beta-arrestin, luminescence, 90 min; 100% = 57 uM dopamine signal; hit rate 0.084% among 360,000; AID 624465; activation, % (test concentration not listed); in the data active = activation above about 40%; inconclusive = about 15% to 40%; inactive = below about 15%; also: compound concentration not given in the record; the text of the record calls up to 30% inactive
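Agonist mode: compounds alone added to overnight-plated D2 PathHunter cells for 90 min at 37 C, with 57 uM final dopamine (EC100) defining full response. Beta-arrestin recruitment detected by chemiluminescent reagent, read after 1 h at ambient temperature.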
Starred values were filed as active, the others as inactive; ? = inconclusive; nt = no result given; [ ] = another dose, or the depositor's remark.

SMILES | Six1-Eya2 blk | Sfp inh | CtBP-E1A inh | TRPV1 PAM | D2 PAM | PINK1 expr mod | D2 ag
COc1ccccc1Cc1c(-c2ccc(Cl)cc2)nc2c3ccccc3ccn12 | 9 | nt | -10 | nt | nt | -0.9% | nt
CN(CCC1CCCCO1)Cc1cn(C)nc1-c1ccc2c(c1)OCCO2 (stereo not given) | 1 | -3% | nt | 4 | -5 | 1.0% | -1.2
CN(C)c1ccc(NC(=O)c2cc3c(=O)n4ccccc4nc3n2C)cc1 | ? | nt | -19 | nt | 11 | 9.4% | 3.7
Cc1ccc(NC(=S)N(CCN2CCCCC2)Cc2ccco2)cc1 | -13 | ? | 2 | -6 | -14 | -1.6% | -4.4
CC(=O)N(CCCN1CCOCC1)Cc1ccncc1 | 6 | 6% | 7 | 13 | 2 | -1.3% | -3.3
COc1ccc(OCC(=O)NNC(=O)C2CCC2)cc1 | 2 | nt | 1 | nt | -5 | 2.2% | -2.2
O=C(N/N=C\c1cc(Br)cs1)C1COc2ccccc2O1 (stereo not given) | -1 | 14% | 1 | -7 | 2 | 1.3% | -1.4
O=C(c1ccc2c(c1)OCO2)N1CCOCC1 | 4 | 18% | -5 | 25 | 18 | nt | -1.0
COc1ccc(C2C(C#N)=C(/N=C/N3CCOCC3)OC3=C2C(=O)CC(C)(C)C3)cc1OC (stereo not given) | -2 | 8% | -5 | 16 | -3 | 2.7%[38.3 µM] | -4.9
CCn1cc(C2=NOC(C(=O)Nc3cccc(C(C)=O)c3)C2)c(C)n1 (stereo not given) | -2 | 14% | 7 | 8 | 3 | ? | 0.8
CCCc1cc(=O)[nH]c(SCC(=O)Nc2c(C)cccc2C)n1 | -8 | 10% | -6 | -2 | -7 | 24%[38.3 µM] | -3.6
Nc1nc(-c2ccccc2)c(N=Nc2ccc(Cl)cc2)s1 | -25 | 25µM* | ? | ? | -8 | 2.7% | -4.5
COc1ccc(C2=NN(c3nc(-c4ccc(CNC(C)=O)cc4)cs3)C(c3ccco3)C2)cc1 (stereo not given) | -2 | ? | -1 | -11 | -7 | 5.4% | -0.3
CN(C)C(CNC(=O)CN1C(=O)NC2(CCc3ccccc32)C1=O)c1ccco1 (stereo not given) | -1 | 0% | 4 | 16 | 6 | -2.5% | -2.2
Cc1cccc(-c2oc3ccc(-c4ccc5c(c4)OCO5)cc3c2-c2ccc(OC3CCCCO3)cc2)c1 (stereo not given) | 9 | nt | -16 | nt | -10 | 3.0% | -5.0
CCc1cccc2c(C(=O)COC(=O)/C=C/c3ccc(O)c(OC)c3)c[nH]c12 | -12 | 11% | -1 | ? | -21 | ? | -3.5
COc1ccc(N2C(S)=C(C#N)C(=O)NC2c2ccc(OC)c(OC)c2)cc1 (stereo not given) | 11 | 22µM* | 0 | 6 | -9 | 1.1% | -6.1
COc1cc(S(=O)(=O)Nc2ccc3nc(C)sc3c2)ccc1NC(C)=O | -3 | nt | 9 | 9 | -13 | 0.1% | -4.5
COC(=O)c1[nH]c2cccc(Cl)c2c1NC(=O)CN1CCN(CCO)CC1 | 1 | 9% | 1 | -1 | -5 | 4.3%[38.3 µM] | -1.1
COc1ccc(C(=O)OCC(=O)NC(=O)NC2CCCC2)cc1OC | 0 | nt | 12 | -2 | 2 | 1.1% | 5.0
COc1ccc(C2SCCN2S(=O)(=O)c2ccc(NC(C)=O)cc2)cc1 (stereo not given) | -3 | 11% | 10 | -12 | -16 | nt | 0.9
Cc1cc(C(F)(F)F)n2ncc(C(=O)O)c2n1 | 22 | -10% | 2 | 1 | -6 | 0.4% | -6.6
Cc1ccc(Oc2ccc(OCC(=O)NC(C)C(=O)O)cc2)cc1 (stereo not given) | 2 | 6% | 10 | 22 | -6 | ? | 3.5
CCOc1ccc(NC(=O)C2CCCN(C(=O)Nc3ccccc3)C2)cc1 (stereo not given) | 4 | -13% | -2 | -6 | 0 | -1.1% | 0.2
CC(C)n1c(Oc2ccc(F)cc2)nc2c1c(=O)n(C)c(=O)n2C | 12 | 16% | 0 | -7 | -4 | 3.6% | -0.7

(more compounds)
SMILES | Six1-Eya2 blk | Sfp inh | CtBP-E1A inh | TRPV1 PAM | D2 PAM | PINK1 expr mod | D2 ag
CCOC(=O)c1c(NC(=O)CSc2nc3ccccc3s2)sc(C(C)=O)c1C | -8 | 11% | -6 | 25 | -16 | -0.8%[38.3 µM] | 1.4
COc1cc(OC)cc(C(=O)Nc2cccc3nc(C)ccc23)c1 | -8 | 7% | -11 | 1 | -3 | 0.2% | 8.6
CCNC(=O)CON=C1c2ccccc2-c2ccccc21 | -4 | -36% | 3 | -15 | -22 | 3.5% | -3.7
CNC(=O)C(=O)NCCC1CCCCN1S(=O)(=O)c1cccs1 (stereo not given) | 10 | nt | -22 | 16 | -8 | 0.3% | 0.3
COC(=O)c1sccc1NC(=O)CC1C(=O)NCCN1C(=O)c1ccc(N(C)C)cc1 (stereo not given) | 8 | -7% | 4 | 9 | -7 | -0.6% | -3.1
Cc1ccc(C(=O)NNC(=O)c2ccoc2C)s1 | 4 | nt | 5 | -1 | -2 | 6.1% | 1.8
CN1CCN(CCCNC(=O)c2ccc(CSCc3cccc(Cl)c3)o2)CC1 | -3 | 6% | -5 | -4 | -21 | 0.0% | -3.8
Cc1ccc(-c2cn3cc(C)ccc3n2)cc1 | -5 | 13% | -1 | 15 | 7 | 3.0% | 7.8
COc1ccc(OC)c(CN(CCN2CCOCC2)C(=O)Nc2ccccc2)c1 | 7 | -6% | 1 | -3 | -20 | 1.6% | -0.6
COc1ccc(C(C)(C)C)cc1NC(=O)CN1C(=O)C(=O)N(Cc2ccco2)C1=O | 4 | nt | nt | -6 | -16 | -1.0% | -4.0
CCn1cc(S(=O)(=O)Nc2cc(C(=O)OC)ccc2C)cn1 | 3 | 31%[activator] | 5 | 1 | -9 | 7.1% | -0.8
CC(C)(c1cc(Cl)c(O)c(CN2CCOCC2)c1)c1cc(Cl)c(O)c(CN2CCOCC2)c1 | 5 | nt | 5 | nt | -3 | -0.5% | 0.5
Cn1c(/C=N/Nc2nc3ccccc3[nH]2)nc2ccccc21 | -14 | -8% | 0 | -9 | -12 | 0.5% | -2.8
CCOc1ccc(N=C2C(=O)Nc3ccc(C)c(Br)c32)cc1 | -2 | -3% | -5 | -12 | -32 | 0.4% | -17
CCN1/C(=C2/SC(=S)NC2=O)Sc2ccccc21 | -10 | -29% | -28 | -2 | -5 | -1.0% | -2.1
Cc1cc2c3c(c1)C(C)CC(C)(C)N3C(=O)C2=C(C#N)C#N (stereo not given) | 1 | 1% | -3 | -2 | -5 | 3.3% | 12
CCC(CN(C)C)Oc1cc(NCc2ccccc2)c2ncn(C(C)C)c2c1 (stereo not given) | -8 | nt | -16 | nt | 5 | 2.7% | 10
O=c1ccc(-c2ccc([N+](=O)[O-])cc2)nn1-c1ccccc1 | -2 | 0% | 3 | 27 | -10 | -0.5% | 0.2
CC1CC(=O)Nc2ccccc2N1C(=O)CSc1nnnn1C (stereo not given) | 0 | nt | 13 | nt | -25 | 0.6% | 0.9
Cc1cc(NN)nc(Cc2ccccc2)n1 | -1 | 50µM* | 0 | 23 | -12 | -0.2% | -5.1
c1ccc(C2C/C(=N\N3CCOCC3)c3ccccc3O2)cc1 (stereo not given) | 1 | 10% | -5 | -3 | 4 | 1.4% | 1.0
CCn1c(SCC(=O)Nc2cc(C)on2)nnc1-c1ccc(S(=O)(=O)N2CCN(C)CC2)cc1 | 2 | 9% | 3 | 23 | -6 | -0.5% | 2.4
CCc1onc(C)c1C(=O)O | 20 | 12% | -6 | -1 | -2 | -0.5% | -2.1
CSc1nsc(NN)n1 | -5 | nt | 1 | nt | -8 | 0.2% | 0.3
COCCCn1c(=NC(=O)c2ccncc2)c(C#N)cc2c(=O)n3cccc(C)c3nc21 | 0 | 13% | 2 | 6 | -5 | -3.0% | -3.9

Next part
SMILES | Six1-Eya2 blk | Sfp inh | CtBP-E1A inh | TRPV1 PAM | D2 PAM | PINK1 expr mod | D2 ag
CC(C)N1C(=O)S/C(=C\c2ccc(-c3ccc(Cl)c(C(=O)O)c3)o2)C1=O | -20 | -28% | nt | 25 | -30 | 1.4% | -1.0
CC(=O)c1cccc(NC2c3ccccc3C(=O)N2Cc2ccc3c(c2)OCO3)c1 (stereo not given) | -2 | 3% | -8 | 4 | 4 | 4.7% | -3.2
CCOP(=O)(c1ccc(N(C)C)cc1)C(O)c1cc(OC)c(OC)c(OC)c1 (stereo not given) | 0 | -7% | 2 | -8 | -2 | -2.1% | -1.1
O=C(CSc1n[nH]c(=O)n1-c1ccccc1)N1CCOCC1 | -17 | -5% | -4 | 27 | -5 | 3.2% | -3.7
CCOc1cccc(C(=O)Nc2cccc(-c3nc4ncccc4o3)c2C)c1 | 0 | -8% | 0 | -12 | -15 | 6.4% | -3.5
CC(C)OC(=O)Nc1ccc2c(c1)N(C(=O)CCN(C)C)c1ccccc1CC2 | 3 | -3% | 4 | 9 | 1 | 0.7% | -1.0
CC(C(=O)NC1=NCCS1)N1C(=O)C2CC=CCC2C1=O (stereo not given) | 25 | 2% | 3 | 5 | -13 | -0.8% | -3.8
Cc1cc(-c2n[nH]c(=S)n2/N=C/c2cccs2)n[nH]1 | -4 | -2% | 2 | 12 | -8 | -0.7% | 0.1
Cc1nccn1CC(O)COc1ccccc1 (stereo not given) | -1 | 14% | 5 | -2 | -1 | 0.1% | -0.7
Cc1cccc(C(=O)Nc2sc3c(c2C(=O)O)CCC3)c1 | -2 | 16% | -5 | 7 | 3 | 0.3% | 3.1
Cc1cnc(NCCc2ccccc2)s1 | 3 | -5% | nt | -5 | -23 | -1.3% | -2.7
COc1ccc(Cc2nc3ccc(C(=O)NC(C)c4cn(C)nc4C)cc3o2)cc1 (stereo not given) | 2 | 8% | 3 | -8 | 4 | 0.3% | 7.0

Pulled by structure from the entries so far, 3 records:
SMILES | Six1-Eya2 blk | Sfp inh | CtBP-E1A inh | TRPV1 PAM | D2 PAM | PINK1 expr mod | D2 ag
COc1ccc(C2=NN(c3nc(-c4ccc(CNC(C)=O)cc4)cs3)C(c3ccco3)C2)cc1 (stereo not given) | -2 | ? | -1 | -11 | -7 | 5.4% | -0.3
COc1ccc(C2SCCN2S(=O)(=O)c2ccc(NC(C)=O)cc2)cc1 (stereo not given) | -3 | 11% | 10 | -12 | -16 | nt | 0.9
Cc1cccc(-c2oc3ccc(-c4ccc5c(c4)OCO5)cc3c2-c2ccc(OC3CCCCO3)cc2)c1 (stereo not given) | 9 | nt | -16 | nt | -10 | 3.0% | -5.0
